# PKD1 inh – inhibitors of human PKD1 kinase. inhibition, %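 (about 10 µM by stock and volumes)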. actives 0.056% (n = 200,000). PKD1 kinase fluorescence polarization assay. AID 797. Q15139;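 active = inhibition of 50% or more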;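 also: controls were vehicle for no effect and a reference inhibitor for full effect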
# Target sequence (Q15139 whole entry, looked up): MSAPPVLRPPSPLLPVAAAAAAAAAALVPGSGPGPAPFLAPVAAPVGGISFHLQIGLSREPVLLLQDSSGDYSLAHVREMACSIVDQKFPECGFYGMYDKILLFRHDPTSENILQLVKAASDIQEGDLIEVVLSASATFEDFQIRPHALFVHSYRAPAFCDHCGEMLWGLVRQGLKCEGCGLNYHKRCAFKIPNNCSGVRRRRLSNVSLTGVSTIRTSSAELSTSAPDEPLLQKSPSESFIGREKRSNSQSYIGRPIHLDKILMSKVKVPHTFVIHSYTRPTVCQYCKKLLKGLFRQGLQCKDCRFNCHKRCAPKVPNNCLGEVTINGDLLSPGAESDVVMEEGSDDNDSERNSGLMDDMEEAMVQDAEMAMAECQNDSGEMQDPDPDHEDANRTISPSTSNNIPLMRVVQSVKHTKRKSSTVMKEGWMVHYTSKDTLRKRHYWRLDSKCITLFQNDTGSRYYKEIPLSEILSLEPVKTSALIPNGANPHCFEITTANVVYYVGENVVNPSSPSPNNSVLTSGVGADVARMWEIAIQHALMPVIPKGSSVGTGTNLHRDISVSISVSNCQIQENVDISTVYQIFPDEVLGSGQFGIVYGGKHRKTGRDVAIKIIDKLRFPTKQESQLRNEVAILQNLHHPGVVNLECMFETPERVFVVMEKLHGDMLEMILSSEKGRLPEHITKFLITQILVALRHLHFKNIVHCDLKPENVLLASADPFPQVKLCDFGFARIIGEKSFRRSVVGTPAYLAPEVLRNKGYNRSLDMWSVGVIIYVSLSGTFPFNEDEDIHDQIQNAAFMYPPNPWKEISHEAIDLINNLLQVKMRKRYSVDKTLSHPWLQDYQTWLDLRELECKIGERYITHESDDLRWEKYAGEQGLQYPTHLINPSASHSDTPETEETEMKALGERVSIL
# GALR2 ag – GALR2 (human) receptor agonism; O43603; GALR2-expressing cells, agonist activation read-out; activation, %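 (tested at 5 µM)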; actives 0.48% (n = 140,000); AID 803;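 active = above mean plus 3 SD of all compounds, about 5% in these data, not always enough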;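 also: 0% = vehicle buffer wells and 100% = reference agonist at full effect; tested in CHO reporter cells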
# Insulin prom inh – TRM-6 insulin promoter activity inhibition; TRM-6 cells (human fetal islet line), insulin promoter-eGFP reporter, imaging; reporter expression induced with tamoxifen; inhibition, % at 2 µM; actives 0.9% (n = 130,000); AID 1273;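 active = inhibition above the mean plus 3 SD, with well images judged a real hit on visual review, cut at about 60% in these data, passing the limit was not always enough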
# RGS16-Gao – RGS16-Galphao interaction regulator (human). O15492+P09471. bead-based flow cytometry RGS16-Galphao binding, fluorescence; actives lie on both sides. binding response (% of control), % at 10 µM. actives 0.38% (n = 220,000). AID 1441;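 active = below 25% or above 175%, edge rows of some plates excepted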;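 also: Galphao activated by GDP with aluminum fluoride before binding; 100% = wells without compound and 0% = beads without RGS; some results beyond the cut were filed as inactive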
# HSV augment – increases HSV replication in cells. maximum fold increase. actives 0.005% (n = 220,000). HSV replication augmentation in cells, fold increase;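 active = peak rise of 1.5-fold or more in the series; tested in PC3 cells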;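 also: first round at 10 µM; read as green reporter fluorescence; hits show the peak of a series up to 25 µM; 1 = signal of infected wells without compound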
# Insulin prom inh cell count – second read-out of Insulin prom inh, no call of its own (marks repeat the call); normalized cell count, %; measured here: cell count, toxicity; reference of the scale not given here;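 cells exposed to compound for 48 h; stained nuclei by imaging scaled within each plate; lower means fewer cells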
# HSV augment primary fold – also measured in HSV augment; calls as there; fold increase; compound at 10 µM; measured here: primary screen fold increase 10 uM; tested in PC3 cells;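 GFP signal in the first replicate; 1 = infected wells without compound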
# Numbers without * were called inactive; i = inactive; x = no result given.
# Start of the data: the first 6 compounds, to show the layout:
SMILES,PKD1 inh,GALR2 ag,Insulin prom inh,Insulin prom inh cell count,RGS16-Gao,HSV augment,HSV augment primary fold
O=C(c1ccc(N2CCOCC2)nc1)N1CCOCC1,-1,-1.6,x,x,100,i,0.83
O=C(c1ccc(Cl)s1)N1CCc2ccccc21,-9,-1.7,31,103,99,i,0.99
COc1c(O)cc2oc(-c3ccc(O)cc3)cc(=O)c2c1O,x,x,x,x,92,i,0.74
O=C(CSc1nn(-c2ccc(Cl)cc2)c(=S)s1)NCC1CCCO1 (stereo unspecified),0,x,x,x,101,i,0.96
CC(=O)N/C(=C\c1cccc([N+](=O)[O-])c1)C(=O)NC(C)C,-15,0.0,34,85,106,i,0.98
Cc1ccc(NC(=O)c2c(C(F)(F)F)nn(C)c2SCc2ccc(Cl)cc2)cc1C,-4,-1.2,x,x,103,i,0.91

# All compounds of this part, previewed entries included:
SMILES,PKD1 inh,GALR2 ag,Insulin prom inh,Insulin prom inh cell count,RGS16-Gao,HSV augment,HSV augment primary fold
O=C(c1ccc(N2CCOCC2)nc1)N1CCOCC1,-1,-1.6,x,x,100,i,0.83
O=C(c1ccc(Cl)s1)N1CCc2ccccc21,-9,-1.7,31,103,99,i,0.99
COc1c(O)cc2oc(-c3ccc(O)cc3)cc(=O)c2c1O,x,x,x,x,92,i,0.74
O=C(CSc1nn(-c2ccc(Cl)cc2)c(=S)s1)NCC1CCCO1 (stereo unspecified),0,x,x,x,101,i,0.96
CC(=O)N/C(=C\c1cccc([N+](=O)[O-])c1)C(=O)NC(C)C,-15,0.0,34,85,106,i,0.98
Cc1ccc(NC(=O)c2c(C(F)(F)F)nn(C)c2SCc2ccc(Cl)cc2)cc1C,-4,-1.2,x,x,103,i,0.91
CCOc1nc(N=C(N)N)nc2c(C)cccc12,4,-4.8,x,x,106,x,x
CCOc1ccccc1OC(=O)c1ccco1,-8,-2.0,67,95,103,i,0.88
CC(O)(CS(=O)(=O)Cc1ccccc1)C(=O)Nc1cccc(C(F)(F)F)c1 (stereo unspecified),10,-3.6,9,117,90,i,0.98
Cc1ccc2oc(-c3cccc(NC(=O)c4cc(-n5cnnc5)ccc4Cl)c3)nc2c1,-1,2.5,-47,182,101,i,0.72
COc1ccc2c(c1)C1(C)CC(C)(C)N2C(=O)N1c1ccccc1 (stereo unspecified),-9,-1.6,x,x,89,i,0.91
CCOC(=O)Cn1c(=O)c2c(nc3n2CCN3Cc2ccccc2)n(C)c1=O,-11,-2.3,-38,101,98,i,0.97
CC(C)Cn1c(O)c(/C=C2\C=NN=C2c2ccccc2)sc1=S,8,-0.9,-3,149,103,i,0.76
Cc1ccc(NC2CC(C)NC(=S)N2)cc1 (stereo unspecified),x,x,x,x,103,i,0.98
O=C1CCCC2=C1C1(CCCC1)N=C(Nc1nc3ccccc3s1)N2,14,-0.2,31,113,93,i,0.94
O=C(COC(=O)CCc1nc2ccccc2c(=O)[nH]1)Nc1ccc(Cl)cn1,x,x,x,x,93,i,1
Cc1ccc(NC(=O)/C(=C\c2cccc(Br)c2)NC(=O)c2ccco2)cc1,-11,-0.5,45,129,99,i,0.79
Cc1cccc(NC(=O)Cn2cnc3c(oc4nc5c(cc43)COC(C)(C)C5)c2=O)c1,0,-0.2,0,82,117,i,1
CCOC(=O)c1cc2c(ccn2C)n1CC(=O)N(C)C,-4,x,x,x,104,i,0.98
COc1ccc(C(=O)NCCSC2CCCCC2)cc1,-1,-0.5,-7,116,102,i,1.1
OCCNCc1cc(Br)ccc1OCc1ccc(Cl)cc1Cl,6,-0.8,x,x,x,i,0.85
O=C(CCN1C(=O)C2C3C=CC(C3)C2C1=O)N1CCN(c2cccc(Cl)c2)CC1 (stereo unspecified),-7,-2.3,-3,86,76,i,1
NC(=O)NNc1cccc(Cl)n1,-4,x,16,107,99,i,1.1
CCCCCCn1c(COc2ccccc2F)nnc1SCC(=O)c1c(N)n(C)c(=O)n(C)c1=O,-7,-1.8,-60,108,101,i,0.91
O=C(CNC(=S)N(Cc1ccc(F)cc1)C1CCCCC1)NCCN1CCOCC1,4,x,44,88,110,i,1
COc1ccccc1NC(=O)Nc1ccccc1N1CCOCC1,x,x,x,x,89,i,0.65
COc1cc([N+](=O)[O-])cc(/C=N/NC(=O)c2cccnc2)c1O,x,x,x,x,87,i,0.82
COC(=O)CSc1nnc(Cc2cc(=O)[nH]c(=O)[nH]2)n1-c1cccc(OC)c1,-6,-2.4,x,x,98,i,0.74
COc1ccc(NC(=O)COc2nsnc2N2CCOCC2)cc1,-2,x,x,x,103,i,0.9
CCN1CCN(CCOc2cccc(Oc3ccccc3)c2)CC1,3,x,x,x,100,i,0.91
Cc1cccc(-n2nnc3cnn(C)c3c2=O)c1,0,-0.6,-40,127,102,i,0.92
Cc1cc2c(cc1C)CN(c1ccccc1)C2,x,x,x,x,96,i,1.1
Cc1cc(=O)[nH]c2c(N=Nc3ccc(O)cc3)c(N)nn12,2,x,-383,34,98,i,0.96
O=C(Nc1ccc2c(c1)OCCO2)c1cccc(S(=O)(=O)N2CCOCC2)c1,4,-2.0,-44,119,103,i,0.82
Cc1ccc(-n2c(SCC(=O)NCc3ccco3)nc3c([nH]c4ccccc43)c2=O)cc1,3,x,x,x,-4.2*,x,x
O=C(CCCCCN1C(=O)c2cccc3cccc(c23)C1=O)NCCO,0,x,38,130,104,i,0.95
COc1ccc(OC)c(C(=O)CSc2nnc(Cc3cccs3)n2C)c1,-4,2.0,31,71,104,i,0.98
COc1ccc(Cc2nnc(NC(=O)Cn3cnc4c3c(=O)n(C)c(=O)n4C)s2)cc1OC,-1,-0.4,-3,54,106,i,0.99
CC(C(=O)N1c2ccccc2CCc2ccccc21)n1nnc(-c2ccc(N(C)C)cc2)n1 (stereo unspecified),-8,-1.9,14,100,103,i,0.8
Cn1c(C(=O)Nc2ccc3c(c2)OCCO3)cc2sccc21,-1,-1.0,x,x,77,i,0.93
COC(=O)C1C(=O)C2=C(CC1C)NC(=O)CC2c1ccc(F)cc1 (stereo unspecified),4,x,x,x,102,i,1.1
O=C(CCC1CCCC1)NC1CCCCC1,3,0.6,-33,107,105,i,0.91
O=C(Cn1nnc(-c2ccccc2)n1)N/N=C/c1cccc([N+](=O)[O-])c1,-9,-0.9,x,x,93,i,1
CCCN1CCC(=O)N(CCSc2ccc(NC(C)=O)cc2)CC1,x,x,x,x,101,i,0.99
CCNC(=O)c1cc2ccccc2o1,-8,-1.2,-22,107,11*,i,0.87
O=C(CCC(=O)c1ccc(Oc2ccccc2)cc1)Nc1ccc(Cl)cc1Cl,10,-1.8,x,x,96,i,0.99
COc1cccc(C(C(=O)Nc2ccc(F)cc2)N(C(=O)Cn2nnc3ccccc32)C2CC2)c1 (stereo unspecified),-6,-0.5,-29,92,99,i,0.83
COc1cccc(/C=N/NC(=O)C[n+]2ccccc2)c1O,-9,0.2,13,93,72,i,0.88
CCCN1Cc2cccc(C(=O)Nc3ccc(C)cc3)c2C1=O,-7,0.7,x,x,104,i,0.99
COc1ccc(CC(=O)Nc2ccc(-c3cn4cccc(C)c4n3)cc2)cc1OC,-10,-1.3,-38,97,97,i,0.89

# Other entries:
SMILES,PKD1 inh,GALR2 ag,Insulin prom inh,Insulin prom inh cell count,RGS16-Gao,HSV augment,HSV augment primary fold
CCOC(=O)CC1=C(C(=O)OCC)C(c2ccc(C)o2)C(C#N)=C(N)O1 (stereo unspecified),3,1.6,-63,111,101,i,1.1
Clc1nc(CN2CCCCC2)nc2sc3c(c12)CCC3,0,x,32,88,103,i,0.85
CC1CN(C(=O)c2ccccc2NS(=O)(=O)c2cccc([N+](=O)[O-])c2)CC(C)O1 (stereo unspecified),-6,0.2,-27,64,96,i,1
OCCC1CN(Cc2ccc(C(F)(F)F)cc2)CCN1Cc1ccccc1 (stereo unspecified),-2,x,x,x,326,i,1
O=C(CCCn1c(=O)c2sccc2n(CC(=O)OCc2ccccc2)c1=O)NCc1ccco1,8,-1.6,x,x,88,i,0.89
Cc1ccc(C)c(NC(=O)CCC(=O)N/N=C/c2ccc3c(c2)OCO3)c1,-9,x,x,x,102,i,1
CCn1ncc(NC(=S)NCCc2ccccc2)c1C(N)=O,3,x,x,x,105,i,0.98
Cc1cc(C(=O)CSc2nnc(-c3ccc(F)cc3)o2)c(C)n1CC1CCCO1 (stereo unspecified),4,-0.4,-49,178,100,i,1.1
O=C(O)c1ccc(CSc2nnc(-c3ccncc3)n2-c2ccc(Br)cc2)cc1,-1,x,x,x,102,i,0.83
COc1ccccc1-c1c(C#N)c(SCC(=O)N2CCCC2)nc(C)c1C(N)=O,6,-1.2,x,x,99,i,1.2
C/C(Cc1ccccc1)=N/NC(=O)CCCC(=O)N/N=C(/C)Cc1ccccc1,2,x,0,139,106,i,0.95
O=C(CSc1nc2cc(Cl)ccc2o1)Nc1ccc(N2CCOCC2)cc1,-10,-2.7,18,69,72,i,1.1
Cc1noc(C(=O)N2CC3(C)CC2CC(C)(C)C3)c1Cl (stereo unspecified),-1,-2.4,x,x,93,i,0.89
O=S(=O)(c1cccs1)N1CCN(CC(O)COC2CCCc3ccccc32)CC1 (stereo unspecified),3,-2.9,x,x,102,x,x
COc1ccc(NC(=O)Nc2ccc(C(=O)N3CCOCC3)cc2)c(OC)c1,-3,x,x,x,93,i,1
Cc1cccc(Oc2coc3cc(OC(=O)c4cccs4)ccc3c2=O)c1,10,-1.5,31,76,99,i,1.1
COC(=O)C1=C(C)N(Cc2ccc(OC)cc2)C(=O)C1,0,-0.4,x,x,109,i,0.96
COC(=O)c1c(NC(=O)c2cccs2)sc2c1CCC(C)C2 (stereo unspecified),-7,-2.8,x,x,102,i,1
Cc1ccc(NC(=O)CCOc2ccccc2C)cc1F,-6,x,x,x,105,i,0.9
CCOc1ccccc1OCCCCCc1c(C)n[nH]c1C,-10,-0.2,x,x,102,i,0.88
O=C(CS(=O)(=O)c1ccccc1)Nc1nc(-c2ccccc2)cs1,-2,-1.2,7,128,108,i,0.77
COc1ccc(Cl)cc1NC(=O)C(C)Sc1n[nH]c(N)n1 (stereo unspecified),6,-1.7,-9,53,102,i,0.78
O=C(CN1CCN(S(=O)(=O)c2ccc(Br)cc2)CC1)N/N=C/c1cccs1,-6,0.5,x,x,103,x,x
CN(C)S(=O)(=O)c1cccc(NC(=O)COC(=O)CCSc2ccc(Cl)cc2)c1,-7,0.0,x,x,103,i,1.1
O=C(O)C1CCC(=O)N1C(=O)OCc1ccccc1 (stereo unspecified),x,x,x,x,94,i,1
CCCCOCCCNC(=O)/C=C/c1ccccc1Cl,7,-3.5,-11,106,x,i,0.86
CCc1ccccc1NC(=S)N(CCc1ccncc1)C(C)C,0,x,x,x,103,i,1.3
COc1cccc(OC(=O)N2CCOCC2)c1,1,x,-77,72,100,i,1.1
CCOC(=O)N1CCC(NC(=O)c2ccc(NC(=O)C3CCCO3)cc2)CC1 (stereo unspecified),3,-1.0,x,x,100,i,0.93
O=C(Nc1nnc(C2CC2)s1)C1Cc2ccccc2CN1C(=O)c1ccco1 (stereo unspecified),1,x,-9,96,86,i,1.1

# The closing 2 entries of the section above open the next one.
SMILES,PKD1 inh,GALR2 ag,Insulin prom inh,Insulin prom inh cell count,RGS16-Gao,HSV augment,HSV augment primary fold
CCOC(=O)N1CCC(NC(=O)c2ccc(NC(=O)C3CCCO3)cc2)CC1 (stereo unspecified),3,-1.0,x,x,100,i,0.93
O=C(Nc1nnc(C2CC2)s1)C1Cc2ccccc2CN1C(=O)c1ccco1 (stereo unspecified),1,x,-9,96,86,i,1.1
CCc1c(C(=O)Nc2ccncc2)csc1C,-6,-0.3,24,147,105,i,0.94
Cc1nn(Cc2nnc(SCC(=O)Nc3ccc(Cl)cc3)n2C)c(C)c1[N+](=O)[O-],x,x,x,x,99,i,1.1
COc1ccc(/C=C(\NC(=O)c2ccc([N+](=O)[O-])cc2)C(=O)N2CCOCC2)cc1,-2,x,0,135,109,i,0.99
O=C(NCc1ccccc1)C1C2C=CC3(CN(Cc4cccnc4)C(=O)C13)O2 (stereo unspecified),-6,-1.5,x,x,101,i,1.1
COc1ccc(S(=O)(=O)Nc2nncs2)cc1,-3,-2.6,19,83,116,i,1.1
O=S(=O)(c1cccs1)N1CN(Cc2ccc(F)cc2)c2nc3ccccc3nc21,11,-1.8,25,101,83,i,0.99
COc1ccc(-c2nc3c([nH]2)c(=O)n(C)c(=O)n3C)c(OC)c1,-5,-0.6,x,x,101,i,0.78
COc1ccccc1N1C(=O)CCC1(C#N)c1ccc(Br)cc1 (stereo unspecified),-9,-3.7,-56,128,103,i,1.2
COc1cc(/C=N/NC(N)=O)ccc1OCC(=O)Nc1cc(C)c(C)cc1Br,-3,x,x,x,103,i,0.84
CCOC(=O)CSc1nnc(CNC(=O)c2cccs2)n1-c1cc(C)ccc1C,13,-2.5,x,x,84,i,1.2
CC(=O)Nc1ccc(S(=O)(=O)NC2=NCN(C)CN2)cc1,-6,x,-8,57,105,i,0.98
